Compound activity: PubChem, National Center for Advancing Translational Sciences (NCATS)
miR-21 FLuc: qHTS Assay for Modulators of miRNAs and/orActivators of miR-21. HeLa miR-21 FLuc reporter, luciferase, 48 h. Potency, µM (doses to about 38.3 µM), for the others: at the highest dose reporter change, positive = more light. 340,000 tested, under 10 active; active = well fitted rising curve with a large enough effect; inconclusive = small, poorly fitted or top-dose-only effect; inactive = no such curve, though single readings can be large or run the other way;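 further: % of control where 0% means no effect; miR-21 action dims this reporter so a rising signal means less miR-21 action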
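Using DMEM plus 10% FBS, HeLa miR-21-FLuc cells are incubated with test compounds (final up to about 40uM) for 48 hours; firefly luciferase signal is then imaged following reagent-mediated lysis.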
Rango release inh: qHTS Assay for Inhibitors of RanGTP induced Rango (Ran-regulated importin-beta cargo) - Importin beta complex dissociation; Snurportin-1 (Homo sapiens) + GTP-binding nuclear protein Ran (Homo sapiens) + Importin …; Biochemical FRET Rango-importin beta, RanGTP-induced dissociation; Potency, µM (doses to about 46.1 µM), inactives show at the top dose activity change, negative = inhibition; 340,000 compounds, 0.071% hits; AID 540253, 2011; active means falling FRET ratio curve, often poorly fitted, with flat reads before Ran was added; inconclusive means other falling curves, or compound fluorescence or quenching; inactive means flat or rising ratio curve;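 further: potency means the concentration at half of the fitted maximal effect; % of control where 0% means no effect; nearly all actives have a fitted effect of over 45% in size; -100% = wells without RanGTP and RCC1; the record marks most hits as doubtful in a second field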
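FRET read at 45 min, room temperature: inhibitors block the CFP/YFP signal rise when RanGTP (0.6 uM Ran, 2 mM GTP, 0.2 uM RCC1) frees Rango (0.1 uM) from importin beta (0.25 uM). Pre-read after 5 min compound exposure flags interference.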
GLA inh pH 4.5: qHTS Assay for Inhibitors of Human alpha-Galactosidase at pH 4.5; Alpha-galactosidase A (Homo sapiens), P06280; purified enzyme, 4-MU-alpha-Gal fluorescence, pH 4.5; activity change, negative = inhibition, % at 105 µM; 230,000 tested, under 10 active; AID 1467, 2008; inconclusive = small, poorly fitted or top-dose-only inhibition, or a rising curve; inactive = flat fitted curve, though single readings scatter; no compound was filed as active;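 further: 0% = full activity with enzyme and -100% = basal without enzyme; dose as in the result columns while the protocol names 77 µM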
Target sequence (P06280 whole entry, looked up): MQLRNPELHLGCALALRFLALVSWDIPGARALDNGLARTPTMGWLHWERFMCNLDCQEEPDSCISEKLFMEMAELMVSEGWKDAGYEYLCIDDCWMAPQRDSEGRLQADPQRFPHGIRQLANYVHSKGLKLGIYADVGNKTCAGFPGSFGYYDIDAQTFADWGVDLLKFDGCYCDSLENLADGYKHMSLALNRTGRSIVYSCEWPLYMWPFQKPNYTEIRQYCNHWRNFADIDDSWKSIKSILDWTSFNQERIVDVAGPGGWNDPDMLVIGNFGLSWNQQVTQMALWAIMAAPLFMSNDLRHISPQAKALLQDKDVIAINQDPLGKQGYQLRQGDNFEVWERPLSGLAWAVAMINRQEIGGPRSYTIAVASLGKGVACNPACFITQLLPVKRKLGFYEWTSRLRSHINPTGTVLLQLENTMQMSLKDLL
Rango complex inh: qHTS Assay for Inhibitors of Rango (Ran-regulated importin-beta cargo) - Importin beta complex formation | Rango CFP/YFP FRET sensor + importin beta, 45 min | Potency, µM (series often up to 92.2 µM), without a hit: at the top dose inhibition of complex formation | 340,000 compounds, 0.031% hits | AID 540263, 2011; active = rising FRET ratio curve, often small or poorly fitted; inconclusive = mostly compound fluorescence or quenching in the first reads; inactive = flat curves in all reads;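 further: potency means the concentration at half of the fitted maximal effect; 0% = DMSO wells and 100% = buffer wells lacking importin beta; nearly all actives have a fitted effect of over 15% in size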
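Inhibition scored from the CFP 486 nm/YFP 530 nm FRET ratio 45 min after adding 0.125 microM importin beta to 50 nM Rango biosensor preincubated 5 min with compound (room temperature, PBS with DTT, Tween-20, BSA). No-importin wells as positive control.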
The depositor's hits bear a star; ? = inconclusive; / = no result given; [ ] = dose if it differs, or a comment.

Sequence of screens – miR-21 FLuc, Rango release inh, GLA inh pH 4.5, Rango complex inh
O=C(COC(=O)/C=C/c1ccccc1Cl)NC(=O)Cc1ccccc1
  -5%, -5%, 1, 0.8%
CC(/C=N/n1cnnc1)=C\c1ccco1
  -9%, 21%, -8, 6.6%
c1ccc(COC2COC3C(OCc4ccccc4)COC23)cc1 (stereo unspecified)
  /, 0%, /, -1.0%
O=C(CCl)Nc1ccccc1C(=O)Nc1ccc2c(c1)OCO2
  ?, -3%, -2, 10%
CCN(CC)S(=O)(=O)c1cccc(NC(=O)c2ccc(-n3nc(C)cc3C)cc2)c1
  26%, -8%, -27, 1.0%
CCCN(CC(=O)Nc1ccccc1OC)CC(=O)c1c(N)n(Cc2ccccc2)c(=O)n(C)c1=O
  /, 13%, /, 1.1%
COc1ccc(-n2nnnc2S(=O)(=O)CC(=O)N2CCCCC2)cc1
  ?, 33%, -11, 0.8%
Cc1cccc(-c2nc3c(c(SCC(=O)N4CCOCC4)n2)Cc2c(CO)cnc(C)c2O3)c1
  9%, 16%, /, -1.0%
Cn1c(SCc2ccccc2[N+](=O)[O-])nnc1-c1cccnc1
  -38%, -5%, -5[21.1 µM], 0.1%
CN(C)/C=C(\C(=O)c1ccc(Cl)cc1)c1nnnn1-c1ccc(Cl)cc1
  /, 18%, /, 0.9%
O=C(NCCCn1ccnc1)/C(=C\c1cccs1)NC(=O)c1ccco1
  -6%, 3%, 6, -3.5%
CCOC(=O)C1(CC2CCCCO2)CCN(C(=O)Nc2ccc(SC)cc2)CC1 (stereo unspecified)
  -19%, 0%, 2, 0.2%
CCCCN(CCCC)C(=O)c1nsnc1-c1ccccc1O
  10%, -20%, -4, -2.7%
Cc1cc(C(=O)CSc2nc(N)cc(=O)[nH]2)c(C)n1CC1CCCO1 (stereo unspecified)
  /, -13%, /, -1.4%
NS(=O)(=O)c1ccc(CNC(=O)CSc2ccccc2)cc1
  -4%, -6%, 0, 1.3%
CCN(CCCNC(=O)c1cc2c(-c3cccc(OC)c3)nn(C)c2s1)Cc1ccccc1
  3%, ?, /, -0.9%
O=C(NC(=S)N1CCN(c2ccc([N+](=O)[O-])cc2)CC1)c1ccc(F)cc1
  0%, -10%, 2, 0.6%
CSCc1cc(N(C)C)nc(SCc2ccc(Cl)c(Cl)c2)n1
  -8%, 0%, -1, 1.1%
O=C(NCc1ccccc1)C1CCCN1S(=O)(=O)c1cccc2cccnc12 (stereo unspecified)
  -22%, 8%, 3, 5.5%
CCCCN(C(=O)c1ccc(NC2CC2)c([N+](=O)[O-])c1)c1c(N)n(CC(C)C)c(=O)[nH]c1=O
  /, 6%, /, -1.0%

Sequence of screens – miR-21 FLuc, Rango release inh, GLA inh pH 4.5, Rango complex inh
O=C(c1ccc(S(=O)(=O)N2CCCC2)cc1)N1CCCC(C(F)(F)F)C1 (stereo unspecified)
  /, 3%, /, -1.8%
COc1ccc(C=O)cc1CN1C(=O)c2ccccc2C1=O
  5%, 1%, /, -2.2%
CCN1CCC(CN2CCNC2=S)CC1
  /, 7%, /, 1.0%
CC(=O)Nc1cc(N=Cc2ccc(O)cc2O)c(Cl)cc1Cl
  -1%, 2%, -8, -0.6%
COc1cccc(/C=C2/CCC(CN(C)C)C2=O)c1 (stereo unspecified)
  /, -7%, /, -1.4%
COc1cc2c3nnc(-c4ccc(F)cc4)c-3cn(Cc3cccc(F)c3)c2cc1OC
  -12%, ?, -4, ?
COc1ccc(CCNC(=O)c2cc3c(=O)n4cccc(C)c4nc3n(CCCN3CCOCC3)c2=N)cc1
  1%, ?, /, ?
CCOC(=O)CN1C2=NCCN2c2ccccc21
  -4%, 14%, -3, 3.2%
Cc1ccc(OCCCC(=O)N2CCOCC2)c(C)c1
  -49%, -7%, -14, 0.0%
Cc1cc(S(=O)(=O)N2CCN(Cc3ccccc3)CC2)c(C)s1
  -9%, -9%, -3, 0.4%
O=C(CSc1nc(C2CCCCC2)nc2ccccc12)NCc1ccc2c(c1)OCO2
  -11%, 2%, 3, 3.1%
NS(=O)(=O)c1ccc(NC(=O)Nc2cccc(Cl)c2)cc1
  -17%, 0%, -10, -0.6%
CN1CCN(C(=O)CCN2C(=O)/C(=C/c3cccc(Br)c3)SC2=S)CC1
  -2%, 2%, /, -0.1%
Cc1cc(=O)n2[nH]c(SCc3ccc(Cl)cc3)nc2n1
  -1%, -3%, 2, -0.1%
O=C(COc1cccnc1[N+](=O)[O-])Nc1cccc2ccccc12
  /, 2%, /, 4.4%
COc1ccc(C2(C(=O)Nc3ccc(C(=O)O)cc3)CCOCC2)cc1
  -5%, 12%, -16, -1.1%
CCOC(=O)C(=Cc1ccc(-n2cncn2)cc1)C(=O)OCC
  ?, 11%, 1, -2.0%
C/C(=N\Nc1ccc2nncn2n1)c1ccc(Cl)s1
  -7%, 0%, -2, -4.2%
CCOc1nc(-c2ccc(Cl)cc2)nc2ccccc12
  -1%, 9%, 4, -2.7%
COc1ccc(C2CC(=O)Oc3ccc(C(C)(C)C)cc32)cc1 (stereo unspecified)
  -1%, 11%, -8, 0.1%

Sequence of screens – miR-21 FLuc, Rango release inh, GLA inh pH 4.5, Rango complex inh
CSc1cccc(NC(=O)C(C)Sc2ccc(C)cc2)c1 (stereo unspecified)
  -1%, -2%, -6, -4.9%
COc1ccc(NC(=O)CSc2n[nH]c(-c3ccncc3)n2)cc1Cl
  /, 31%, /, -1.2%
COc1ccc(S(=O)(=O)Nc2c3ccccc3nc(=O)n2-c2ccccc2)cc1
  -3%, 21%, 10, -2.9%
COc1cccc(OCC(O)CN2CCN(C)CC2)c1 (stereo unspecified)
  -1%, 3%, /, 0.1%
O=C(CCC1CCCCC1)Nc1cccc(C(=O)Nc2ccc(C(=O)O)cc2)c1
  /, 9%, /, 2.5%
Cc1ccccc1OCC(=O)NC(C)c1ccccc1 (stereo unspecified)
  -8%, 1%, /, 0.0%
O=C(COc1coc(CN2CCN(c3ccc(F)cc3)CC2)cc1=O)NC1CCCC1
  /, 0%, /, 1.2%
CC(=O)NCCC1CCN(c2nc3nonc3nc2N(C)Cc2ccccc2)CC1
  2%, -22%, 5, -1.9%
S=C(NCc1ccccn1)Nc1ccc(Br)cc1Cl
  -50%, 2%, -2, 1.9%
CC(=O)Nc1nc(-c2ccc3c(c2)OCO3)cs1
  -38%, -15%, 3, -1.5%
CCOc1ccccc1NC(=O)CCn1ccnc1
  3%, -1%, /, -1.0%
Cc1ccc(OCCNc2ccc(C(F)(F)F)cc2[N+](=O)[O-])cc1
  -6%, 0%, -2, -2.5%
COc1cccc(-c2c(C(=O)N/N=C/c3ccco3)nnn2-c2nonc2N)c1
  -5%, 5%, /, -1.2%
CCS(=O)(=O)N1CCN=C1SCc1ccccc1
  -4%, 7%, /, -1.4%
N=c1c(C(=O)NC2CCCCC2)cc2c(=O)n3ccccc3nc2n1Cc1ccco1
  1%, ?, /, ?
O=C(Nc1cccc(S(=O)(=O)Nc2ccccc2F)c1)c1ccco1
  /, -4%, /, 6.3%
COc1nccc(C(F)(F)F)c1C(=O)Nc1ccc(Cl)cc1
  12%, -6%, -3, -0.2%
COc1ccc(OCc2n(CC(=O)OC3CC(C)CCC3C(C)C)c3ccccc3[n+]2C)cc1 (stereo unspecified)
  ?, 20%, -5, 3.0%
O=S1(=O)N=C(Oc2ccccc2)c2ccccc21
  2%, 3%, 2, 0.0%
COc1cccc(NC(=S)N2CCN(S(C)(=O)=O)CC2)c1
  -5%, ?, /, ?

Reformatted with the structure last: entries from further up
miR-21 FLuc	Rango release inh	GLA inh pH 4.5	Rango complex inh	molecule
/	31%	/	-1.2%	COc1ccc(NC(=O)CSc2n[nH]c(-c3ccncc3)n2)cc1Cl
2%	3%	2	0.0%	O=S1(=O)N=C(Oc2ccccc2)c2ccccc21

(list continues)
Sequence of screens – miR-21 FLuc, Rango release inh, GLA inh pH 4.5, Rango complex inh
CC(NC(=O)/C(C#N)=C/c1cn(-c2ccccc2)nc1-c1ccc(F)cc1)c1ccccc1 (stereo unspecified)
  1%, 3%, 0, 1.3%
Cc1[nH]c(=O)[nH]c(=O)c1CSc1nnc([C@@H](NC(=O)OC(C)(C)C)C(C)C)o1
  0%, -1%, 9, 1.7%
CN(C)c1ccc(P(=O)(OCc2ccccc2)C(O)c2ccncc2)cc1 (stereo unspecified)
  -5%, -7%, -3, 0.4%
CCCC(=O)Nc1c2c(nc3ccccc13)N(c1ccccc1)CC2
  -1%, -15%, ?, -3.8%
O=C(Nc1ccccc1O)c1cccc(S(=O)(=O)N2CCOCC2)c1
  8%, 2%, -1, 3.5%
O=C(NC1CCCC1)C(=O)N(Cc1cccnc1)C(C(=O)NC1CCCC1)c1ccco1 (stereo unspecified)
  -5%, -10%, 5, -0.7%
CN1CCC(OC(=O)c2cccc(Br)c2)CC1
  2%, 8%, 7, 0.8%
Nc1nc(SCC(=O)N2CCCc3ccccc32)n[nH]1
  /, -4%, /, 0.0%
COc1cccc(N/C(SCc2cccc([N+](=O)[O-])c2)=C(/C#N)C(N)=O)c1
  26%, -6%, -5[21.1 µM], -3.7%
O=C(Cn1nnc2ccccc2c1=O)N[C@@H](Cc1ccccc1)C(=O)O
  -6%, 8%, 0, -3.2%
O=C(NCCNC(=O)c1cnccn1)c1cccc(Cl)c1
  2%, 13%, /, -0.6%
CN(C(=O)CCl)C1CCCc2ccccc21 (stereo unspecified)
  ?, 0%, -4, -0.5%
CCOc1cc(/C=C2\SC(N)=NC2=O)ccc1O
  -1%, ?, /, ?
C/C(=N/OCC(=O)NCCCCCCNC(=O)CO/N=C(/C)c1cccs1)c1cccs1
  -4%, -7%, 2, 2.4%
O=C(Nc1ccon1)Nc1ccc(Cl)cc1Cl
  -24%, -4%, /, 0.0%
CCOC(=O)CCc1c(C)c2ccc(OC(C)C(=O)OCC)c(C)c2oc1=O (stereo unspecified)
  -12%, 9%, 6, -0.4%
Cc1ccc(C(=O)Nc2ncc(C)s2)s1
  0%, 18%, /, -1.5%
O=C(CSC1=NCCS1)NC1CCCCC1
  -19%, 3%, 6, 2.6%
CCc1c(C#N)c(=O)[nH]c(=O)n1-c1ccccc1
  /, -9%, /, 1.1%
CCN(CC)CC(O)Cn1c(-c2cccc(Cl)c2)nc2cc(C)c(C)cc21 (stereo unspecified)
  -36%, -3%, -1, -2.3%

Sequence of screens – miR-21 FLuc, Rango release inh, GLA inh pH 4.5, Rango complex inh
COc1cc(C(=O)NCCCc2nc3ccccc3n2Cc2cc(C)ccc2C)cc(OC)c1OC
  -1%, 0%, 6, -2.0%
CCN1CCCC1CNC(=O)c1ccc(Sc2ccc(F)cc2)c([N+](=O)[O-])c1 (stereo unspecified)
  -13%, 15%, -3, 9.6%
Cc1cccc(OCC(=O)NCC(c2ccco2)N2CCCC2)c1 (stereo unspecified)
  /, 2%, /, -0.2%
CCc1nccn1C(=O)c1cnn2c(C(F)F)cc(-c3ccc(C)cc3)nc12
  -5%, -2%, 6, 1.2%
CC1CC(OCC(O)CN2CCN(Cc3ccccc3)CC2)CC(C)(C)C1 (stereo unspecified)
  8%, 2%, /, 1.4%
CCOC(=O)Cc1cnc(NC(=O)CSc2nc(C)c(CC)c(=O)[nH]2)s1
  0%, 7%, 3[21.1 µM], 0.4%
CCCNC(=O)c1cccc(C(F)(F)F)c1
  -5%, 1%, 2, 2.4%
O=c1nc2c(-c3ccccc3F)n[nH]n2c2ccccc12
  -38%, ?, 6, ?
Nc1c(Cl)cc(Cl)cc1C(=O)OCC(=O)N1CCCC1=O
  /, 10%, /, 0.1%
CC(C)(C)CN1CCNC[C@H]1Cc1ccc(O)cc1
  /, 2%, /, 2.1%

Not all compounds are listed; rates above refer to the full screens.
